# From PubChem
# LANA-H2B inh = blocks KSHV LANA binding to histone H2A/H2B | Q9QR71 | AID 2629 | cell-free LANA-H2A/H2B peptide, fluorescence polarization | inhibition, % (no concentration beside the values) | 320,000 compounds, 0.6% hits; in the data active = inhibition mostly above about 10%, no sharp cut-off; inactive = mostly below about 6.7%;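 also: stock transfer was 7.5 nL into about 10 µL; 0% = median of vehicle wells and 100% = median of positive control wells; one replicate is shown; the record names a cut of 25% in any replicate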
# Target sequence (Q9QR71 whole entry, looked up): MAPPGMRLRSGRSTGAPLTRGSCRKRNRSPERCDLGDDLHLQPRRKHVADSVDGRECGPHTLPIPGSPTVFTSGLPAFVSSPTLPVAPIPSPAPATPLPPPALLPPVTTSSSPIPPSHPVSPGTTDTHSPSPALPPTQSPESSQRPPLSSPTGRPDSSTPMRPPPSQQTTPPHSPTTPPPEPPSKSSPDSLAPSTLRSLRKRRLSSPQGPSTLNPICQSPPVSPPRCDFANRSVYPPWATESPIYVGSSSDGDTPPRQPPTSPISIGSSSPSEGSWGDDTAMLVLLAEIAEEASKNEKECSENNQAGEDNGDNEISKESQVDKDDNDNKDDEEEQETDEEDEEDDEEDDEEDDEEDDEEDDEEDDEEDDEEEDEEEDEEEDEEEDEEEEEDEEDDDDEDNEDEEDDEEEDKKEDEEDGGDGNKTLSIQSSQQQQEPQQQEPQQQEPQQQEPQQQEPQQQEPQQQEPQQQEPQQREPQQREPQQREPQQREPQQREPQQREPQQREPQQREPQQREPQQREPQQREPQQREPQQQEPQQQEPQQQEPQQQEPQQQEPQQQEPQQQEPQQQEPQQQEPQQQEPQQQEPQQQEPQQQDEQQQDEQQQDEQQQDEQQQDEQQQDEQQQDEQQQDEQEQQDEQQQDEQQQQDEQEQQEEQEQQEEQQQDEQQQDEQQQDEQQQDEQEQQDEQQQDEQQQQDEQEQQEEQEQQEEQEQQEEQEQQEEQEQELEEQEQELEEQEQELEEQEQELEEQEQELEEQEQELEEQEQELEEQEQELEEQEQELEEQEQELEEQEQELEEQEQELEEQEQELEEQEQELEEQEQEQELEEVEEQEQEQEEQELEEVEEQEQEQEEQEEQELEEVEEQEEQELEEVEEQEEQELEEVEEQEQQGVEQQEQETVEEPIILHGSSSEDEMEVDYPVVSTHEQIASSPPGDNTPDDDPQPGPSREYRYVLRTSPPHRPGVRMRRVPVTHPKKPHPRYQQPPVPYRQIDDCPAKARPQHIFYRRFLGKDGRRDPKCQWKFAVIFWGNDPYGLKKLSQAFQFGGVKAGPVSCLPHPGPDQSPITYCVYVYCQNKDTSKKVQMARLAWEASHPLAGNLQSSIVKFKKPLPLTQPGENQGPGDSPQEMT
# AF4-AF9 inh = MLL-AF4/AF9 protein interaction inhibition | AlphaScreen, biotin-AF4 peptide binding to FLAG-AF9 | 350,000 compounds, 0.47% hits | AID 651704 | inhibition, % at 10 µM;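 active = every replicate reaching a set inhibition limit, whatever the replicate mean, cut at about 25% in these data; inconclusive = mean inhibition reaches that limit but some replicates miss it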;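 also: 0% = plate neutral control median and 100% = total signal loss; the record names both 10 and 1 µM as test concentration; the first replicate is given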
# A1 inh = inhibitors of the anti-apoptotic protein A1, read as caspase activation; MEF A1-2A-BIM cells, Caspase-Glo 3/7 luminescence, 3 h; percent of clofoctol response, vehicle zero; caspase activation, % (test concentration not listed); 330,000 compounds, 0.066% hits; AID 2462;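 active = over half of replicate activation scores above 10%, or exactly half above 10 with the replicate mean above 10; inconclusive = replicate mean below 10 yet half the replicates above 10; inactive = over half of replicates below 10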;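 also: wells of about 30 µL received 50 nL stock; many hits fall short of the cut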
# Calb FLC = affects C. albicans growth with fluconazole; growth inhibition, % (no concentration beside the values); AID 1979; 300,000 compounds, 0.57% hits; C. albicans CaCi-2 (fluconazole-resistant clinical isolate) + fluconazole, Alamar Blue growth, 48 h;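 active = most replicates above 75%; inconclusive = exactly half above 75%; inactive = most below 75%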;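 also: all wells also contain fluconazole at 8 µg/ml as a sub-toxic cotreatment; 0% = median of DMSO wells and 100% = median of geldanamycin control wells; wells of about 8 µL received 7.5 nL stock; the first replicate is given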
# Beta cell apopt = blocks beta cell apoptosis | INS-1E cytokine-induced death, ATP luminescence, 48 h; percent of positive-control rescue, neutral wells zero | protection from apoptosis, % (concentration not given with the values) | 300,000 compounds, 0.8% hits;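 active = all replicates at 75% or more, or half of them and the mean; inconclusive = half reach 75% but not the mean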;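 also: 0% = cytokine-treated negative control wells and 100% = positive control rescue; higher means more ATP so stronger rescue from cytokine killing; wells of about 40 µL received 100 nL stock; the first replicate is given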
# RanGTP-Impb inh = inhibitors of RanGTP-importin-beta interaction, primary screen, biochemical, FRET, CFP-Ran, YFP-importin-beta, homogeneous; cell-free CFP-Ran/YFP-importin-beta FRET ratio; inhibition, % (concentration not given with the values); 300,000 compounds, 1.1% hits; AID 2216;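 active = most replicates above 15%; inconclusive = exactly half above 15%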;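 also: 0% = DMSO wells and 100% = Ran loaded with GDP instead of GTP; wells of about 40 µL received 100 nL stock; the first replicate is given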
# Vif TR-FRET = HIV-1 Vif–A3G interaction blockers – biochemical, TR-FRET, GST-Vif 1-94, biotin-A3G peptide, dose response retest, primary screen (AID 1117319); TR-FRET GST-Vif / biotin-A3G peptide binding; higher % means a stronger effect; test concentration not given here; strong numbers were not always called active; 260,000 compounds, 0.57% hits; inhibition, %, or IC50 in µM where a hit was titrated;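 active = above the screen mean plus three standard deviations and confirmed in dose response; inconclusive = results disagree or hit not tested in dose response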;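 also: Vif residues 1-94 fused to GST binding biotinylated APOBEC3G peptide 110-148; 0% = full assay without inhibitor and 100% = GST in place of GST-Vif; retest series ran down from 100 µM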
# T cruzi repl = T. cruzi replication inhibition | T. cruzi beta-gal in NIH3T3, luminescence, 90 h | 300,000 compounds, 1.4% hits | inhibition, % (test concentration not listed);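 active = mean inhibition across valid replicates above about 55%, limit read from the data; inconclusive = mean below that limit but half or more replicates reach it; inactive = mean below it, under half of replicates reach it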;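 also: signal also drops with host cell toxicity which is not excluded here; 0% = plate median of DMSO wells and 100% = zero luminescence signal; higher percent means less beta-gal luminescence so fewer parasites; stock transfer was 50 nL into about 50 µL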
# Active calls of the source: *; ? = inconclusive; · = no result given; & = joins results of further samples.
SMILES,LANA-H2B inh,AF4-AF9 inh,A1 inh,Calb FLC,Beta cell apopt,RanGTP-Impb inh,Vif TR-FRET,T cruzi repl
O=C(/C=C/c1ccc(Cl)cc1)c1ccc([N+](=O)[O-])o1,6.4,-8.8,9.9*,-5,115*,2.4,·,4
O=C(CSc1ccc(-c2ccc(F)cc2)nn1)NCC1CCCO1 (stereo not given),1.6,0.4,-0.4,4,-4,-2.2,-3%,-6
O=C(NCc1ccc(F)cc1)Nc1ccccc1,0.3,-1.4,0.1,-22,-3,12,-2%,-1
CC(C)NC(=O)N(C)C[C@H]1Oc2ccc(NC(=O)Nc3ccccc3)cc2C(=O)N([C@@H](C)CO)C[C@@H]1C,5.1,-3.0&-10,-1.3,·,0,·,·,·
CCc1ccccc1NC(=O)c1ccc([N+](=O)[O-])s1,-3.6,1.6,0.1,-1,21,?,·,60*
NS(=O)(=O)c1cccc(NC(=O)COC(=O)/C=C/c2ccco2)c1,9.1,2.8,0.8,8,-8,-0.4,31%,-29
O=C(COC(=O)/C=C/c1ccc(OC(F)F)cc1)Nc1cccc(S(=O)(=O)N2CCOCC2)c1,-0.1,6.0,-1.3,·,-2,·,1%,·
CC(C)c1ccc(OCC(O)CNC(C)c2ccccc2)cc1 (stereo not given),4.2,3.3,0.6,-4,15,7.8,0%,44
CC(C)(C)OC(=O)CN1C(=O)NC2(CCCc3ccccc32)C1=O (stereo not given),-8.8,-1.7,0.1,-1,-6,1.4,·,-14
COc1ccc2cc3c(N)nn(C(=O)c4ccc(Cl)c([N+](=O)[O-])c4)c3nc2c1,0.9,0.1,0.0,11,-17,-2.7,·,-9

# Compound profiles, as listed above:
# `O=C(CSc1ccc(-c2ccc(F)cc2)nn1)NCC1CCCO1` (stereo not given) as listed: LANA-H2B inh = 1.6; AF4-AF9 inh = 0.4; A1 inh = -0.4; Calb FLC = 4; Beta cell apopt = -4; RanGTP-Impb inh = -2.2; Vif TR-FRET = -3%; T cruzi repl = -6
# `NS(=O)(=O)c1cccc(NC(=O)COC(=O)/C=C/c2ccco2)c1` as listed: LANA-H2B inh = 9.1; AF4-AF9 inh = 2.8; A1 inh = 0.8; Calb FLC = 8; Beta cell apopt = -8; RanGTP-Impb inh = -0.4; Vif TR-FRET = 31%; T cruzi repl = -29

# Later entries:
SMILES,LANA-H2B inh,AF4-AF9 inh,A1 inh,Calb FLC,Beta cell apopt,RanGTP-Impb inh,Vif TR-FRET,T cruzi repl
O=C(c1ccco1)N1CCN(CC(O)COc2ccc(Br)cc2)CC1 (stereo not given),0.5,1.9,-0.7,-8,-1,-1.0,-6%,-8
CCOC(=O)C1CCCN(C(=O)c2cccs2)C1 (stereo not given),2.0,·,0.7,?,-4,-1.0,1%,-2
Cc1ccc2c(C)nc(Nc3nc(CSc4nc5ccccc5[nH]4)cc(=O)[nH]3)nc2c1,-1.1,-1.4,0.4,?,90*,3.0,-1%,28
CNC(=O)c1ccc(NC(=O)c2ccc3c(=O)n4c(nc3c2)CCC4)cc1,5.3,2.8,-0.9,·,-4,·,13%,·
Cc1cc(N2C(=O)NC(=O)CC2C)c(C)cc1C(C)C (stereo not given),0.0,-3.6,0.7,1,-15,-1.4,5%,-4
O=C(OCC(=O)N1CCOCC1)c1cccc(S(=O)(=O)Nc2ccc(F)cc2)c1,-4.0,-4.5,-0.3,·,5,·,6%,·
COc1ccc(-c2noc(C3CCCN(C(=O)Nc4ccccc4F)C3)n2)cc1 (stereo not given),-3.4,-1.3,-0.4,-9,1,-3.9,·,9
O=c1c(=O)n2c(nn1Cc1ccc(F)cc1)sc1ccccc12,1.8,-2.3,0.9,-7,-11,0.7,·,-19
CC(C)CCNc1nc(-c2ccco2)c2c(c1C#N)CCCC2,-2.8,·,-0.4,0,-6,7.4,7%,19
COc1ccccc1NC(=O)CSc1nnc(-c2ccncc2)o1,-3.0,·,-2.8,1,0,3.0,-5%,-7
COc1ccc(CCNC(=O)c2cccc(S(=O)(=O)N3CCCCC3)c2)cc1,3.3,-11,-0.3,-3,-4,-2.8,3%,3
COc1ccc(C(=O)N/N=C\C(C)=C\c2ccccc2)cc1OC,-2.2,3.6,-0.1,5,19,1.7,·,-7
Cc1ccc(NC(=O)COC(=O)C2(CC(=O)NC(C)C)CCCC2)cc1C,-6.0,-0.9,1.6,·,-1,·,·,·
Cc1cc(C)c(-c2csc(NC(=O)c3n[nH]c(=O)c4ccccc34)n2)c(C)c1,-4.7,1.9,0.3,3,6,-3.7,·,14
Cc1ccc(S(=O)(=O)N/N=C\c2ccccc2OCc2ccccc2)cc1,1.6,·,0.3,38,·,4.6,-6%,3
Cc1ccc(C23CC4CC(CC(CN)(C4)C2)C3)cc1,·,2.2,·,10,·,2.2,2%,38
CN(C(=O)COC(=O)COc1ccc(Cl)cc1)C1CCCCC1,-11,·,0.0,3,-1,1.3,6%,-1
COc1ccc2oc(=O)c(-c3ccccc3C(=O)N3CCOCC3)cc2c1,-3.4,·,-0.8,-14,·,0.3,8%,-19
CC(=O)Nc1ccc(-c2nnc(SCc3ccc(C)cc3)n2C)cc1,-3.5,·,0.2,-2,2,2.8,-3%,0
COC(=O)[C@@]12CCCN1[C@H](c1ccc(-c3ccc(OC)cc3)c(OC)c1)[C@@H]1C(=O)N(C)C(=O)[C@@H]12,0.4,-0.1,0.5,·,-12,·,·,·
O=C(CSc1nnc(-c2cccnc2)o1)NNC(=O)c1ccc(Br)cc1,0.6,0.2,0.3,7,8,-0.5,1%,-2
Cc1ccc(C)c(NC(=O)COC(=O)CSc2ccccc2)c1,-1.1,-1.6,1.7,·,-9,·,-8%,·
CCCCNS(=O)(=O)c1ccc(NC(=O)c2cccs2)cc1,-2.4,-1.2,-3.5,-9,9,-2.2,5%,3
O=C(CNS(=O)(=O)c1ccc(Br)s1)NCc1ccccc1,1.9,3.7,-0.5,-2,-5,-0.6,·,4
CCN(CC)C(=O)CC(c1ccc(N(C)C)cc1)c1c(OC)cc(OC)c2ccc(=O)oc12 (stereo not given),1.5,7.0,-0.2,2,-3,-0.5,12%,-20
O=C(/C(=C/c1ccc(Cl)cc1)c1nc2ccccc2[nH]1)c1cccs1,-8.5,·,1.9,35,126*,-2.3,20%,59*
Cc1cccc(N2CCN(C(=O)CCNC(=O)Cn3ccc4ccccc4c3=O)CC2)c1C,-3.9,·,-0.3,5,2,-3.6,-1%,1
COc1ccc(/C=N/n2c(C3CCCCC3)n[nH]c2=S)c(OC)c1,-4.7,1.2,0.9,0,1,8.8,8%,-2
O=C(CSC1=NC2(CCCCC2)N=C1c1ccccc1)Nc1ccc2c(c1)OCCO2,-0.9,2.5,1.9,-1,1,3.9,·,43
Cc1noc(C)c1COc1ccccc1C(=O)NNC(=O)c1ccccc1F,2.3,2.2,0.7,·,-4,·,1%,·
COCCn1c(C)cc(/C=C2/NC(=O)N(Cc3ccc(C)cc3)C2=O)c1C,-1.7,-2.1,0.8,0,-5,-0.4,9%,33
COC(=O)Nc1ccc(S(=O)(=O)NC2CCS(=O)(=O)C2)cc1 (stereo not given),0.3,4.3,-0.4,8,-2,-1.4,3%,-6
O=C1NC(=S)N(C(=O)c2ccc(F)cc2)/C1=C/c1ccccc1,-1.0,-9.1,-0.3,-1,14,-1.1,·,-14
CCn1c(SCC(=O)Nc2ccc(OC)cc2)nc2c(c1=O)SCC2,-4.5,0.1,1.1,-7,-7,-1.8,·,3
CCOC(=O)c1c(NC(=O)c2ccccc2)sc2c1CCc1ccccc1-2,4.7,-0.1,0.4,?,6,0.8,·,-7
Cc1cc(Nc2cccc(C)c2C)n2nc(C)nc2n1,-2.8,0.8,-0.6,9,1,-5.3,?,2
COc1ccc(-c2ccc3c(N)c(C(=O)c4cccc(OC)c4)sc3n2)cc1,3.0,·,0.1,27,-5,4.5,9%,16
Cn1c(N)c(C(=O)COC(=O)CSc2cccc3cccc(Cl)c23)c(=O)n(C)c1=O,-0.8,-3.2,0.3,-1,-9,?,-59%,-8
CC(C)CCC1(C)NC(=O)N(CC(=O)NCC(=O)Nc2ccc(F)c(F)c2F)C1=O (stereo not given),-3.3,2.8,-0.6,·,5,·,·,·
COc1ccc(C(=O)Nc2ccc3oc(-c4cccc(F)c4)nc3c2)cc1OC,1.0,1.4,-0.8,-2,·,1.8,-12%,3
Cc1cc(NC(=O)C2CC(=O)N(c3ccc(Cl)cc3)C2)no1 (stereo not given),4.5,7.4,-0.2,-5,2,0.6,·,-13
COc1ccc(C)cc1Nc1n[n+](-c2ccccc2)c(-c2c(Cl)cccc2Cl)s1,0.7,45*,0.6,5,99*,3.8,·,44
Cc1ccccc1-c1nnc(NC(=O)c2ccc(N3C(=O)CCC3=O)cc2)s1,3.0,3.5,1.6,0,-1,-2.2,·,-10
O=C(Nn1cnc2ccccc2c1=O)c1cccc(Cl)c1,5.3,-1.4,1.1,-26,-4,1.9,-2%,-13
CCOCCCNC(=O)c1ccc(Cn2c(=S)[nH]c3c([nH]c4ccc(OC)cc43)c2=O)cc1,0.5,-2.2,-0.4,?,-4,-1.2,-9%,2
Cc1ccc(NC(=O)CCN2C(=O)c3ccccc3S2(=O)=O)cc1C,3.3,-1.6,1.6,5,-1,-5.7,-1%,-1
CCNC(=O)NC(=O)CSc1nc2ccccc2n1CCOC,4.0,·,-0.4,-8,0,-2.9,12%,5
CN(C)/C=C/C(=O)c1ccc(F)cc1F,-3.7,·,1.7,-8,-2,-0.5,-9%,8
COc1cc(C(=O)c2nccc3cc(OC)c(OC)cc23)c([N+](=O)[O-])cc1OC,-0.3,10,-2.3,20,-16,0.7,5%,17
Cc1c(-n2c(SCC(=O)O)nnc2-c2ccccc2Cl)c(=O)n(-c2ccccc2)n1C,-1.8,·,2.3,?,-2,-4.2,26%,-13

# Other entries
SMILES,LANA-H2B inh,AF4-AF9 inh,A1 inh,Calb FLC,Beta cell apopt,RanGTP-Impb inh,Vif TR-FRET,T cruzi repl
Cc1cc(OCc2ccc(C(=O)Nc3ccc(C(=O)O)cc3)o2)ccc1Cl,-3.7,-3.2,0.4,2,2,-0.4,-2%,-15
CC(NCCOc1ccccc1F)C(=O)Nc1ccc(S(N)(=O)=O)cc1 (stereo not given),1.9,-1.4,-0.6,-3,-3,2.7,1%,-2
O=C(/C=C/Nc1cccc(C(F)(F)F)c1)c1ccco1,2.4,0.7,-2.4,-13,-5,-0.7,13%,-3
CCCn1nc(NC(=O)c2ccco2)c2cc3cc(C)ccc3nc21,3.9,-6.7,0.4,-1,-5,79*,3%,20
Cc1cc(S(=O)(=O)NC(C)c2nnc3ccccn23)ccc1Br (stereo not given),-1.0,-1.7,0.0,·,-2,·,·,·
CC(=O)C1=C(C)Nc2ncnn2C1c1ccc(F)cc1 (stereo not given),2.2,-5.4,0.4,5,5,?,·,-10
CC(C)(C)NC(=O)CSc1nnc(NC(=O)c2ccccc2Cl)s1,-1.9,-1.1,-0.1,-2,-7,?,1%,5
CC1CCC(NC(=O)CSc2nnnn2C)CC1 (stereo not given),3.3,?,0.6,·,-8,·,-10%,·
